TRPML1 blocker – inhibitors of human TRPML1 channel | activity change, negative = inhibition, % (test concentration not listed) | Q9GZU1 | 390,000 tested, 0.02% active | TRPML1-inducible cells, Ca2+ dye fluorescence, FDSS; active compounds read low; inhibition of EC80 agonist-evoked calcium signal; in the data active means activity change below about -50%; inconclusive means about -30% to -50%; inactive means above about -30%;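 also: stimulus is agonist 54-4 at its EC80 concentration; % is scaled to controls: 0 for no effect and ±100 for the full control effect; compound concentration not given in the record; the text of the record puts the active cut at -80%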
Target sequence (Q9GZU1 whole entry, looked up): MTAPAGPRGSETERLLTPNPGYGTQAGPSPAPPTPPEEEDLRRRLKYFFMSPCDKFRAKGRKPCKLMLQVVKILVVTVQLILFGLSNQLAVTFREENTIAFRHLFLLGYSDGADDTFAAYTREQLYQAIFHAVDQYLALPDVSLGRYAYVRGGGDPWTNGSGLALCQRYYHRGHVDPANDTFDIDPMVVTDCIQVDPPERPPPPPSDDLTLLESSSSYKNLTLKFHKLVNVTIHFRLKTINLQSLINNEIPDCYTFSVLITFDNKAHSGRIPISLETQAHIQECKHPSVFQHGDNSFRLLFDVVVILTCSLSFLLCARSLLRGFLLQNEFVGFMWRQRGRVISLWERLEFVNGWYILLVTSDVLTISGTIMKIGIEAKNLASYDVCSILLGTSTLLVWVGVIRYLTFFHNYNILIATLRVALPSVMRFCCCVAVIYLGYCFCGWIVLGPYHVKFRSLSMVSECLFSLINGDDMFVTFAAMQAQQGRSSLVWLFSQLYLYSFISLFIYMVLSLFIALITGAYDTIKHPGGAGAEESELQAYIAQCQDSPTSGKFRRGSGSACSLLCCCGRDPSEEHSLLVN
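TRPML1-DL cells, Tet-induced overnight (~16 h, 37 °C) at 1,500 cells/well, were loaded with Ca8 no-wash dye plus quencher for 45-90 min at room temperature. Compounds were pinned during FDSS kinetic reading; agonist 54-4 at EC80 (4 uM final) then added.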
TRPML1 agonist – human mucolipin-1 channel agonism. 410,000 tested, 0.12% active. TRPML1-expressing cells, Ca2+ dye fluorescence, FDSS; host cell line not named in the record; reference of the full effect not given here. activation, % (test concentration not listed). Q9GZU1; in the data active = activation above about 50%; inconclusive = about 30% to 50%; inactive = below about 30%; also: 0% is about no effect; the text of the record puts the active cut at 80%
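TRPML1-DL cells, Tet-induced overnight (~16 h, 37 degrees C), loaded 45-90 min at room temperature with Ca8 no-wash calcium dye plus quencher. FDSS fluorescence: 10 s baseline, compound pin-transfer, 110 s agonist read, then EC80 54-4 (4uM final) and 110 s antagonist read.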
Active calls of the source: *; ? = inconclusive. Only part of the results is shown, so the mix of outcomes need not match the whole.

Screens in order: TRPML1 agonist	TRPML1 blocker
1. Cc1c(NC(=O)Nc2cccc(C(F)(F)F)c2)sc2nc3n(c(=O)c12)CCC(C)CC3 (stereo not given)
    -0.6	3.4
2. CN(Cc1ccccc1)C(=O)CSc1c2c(nc3ccc(Cl)cc13)CCCC2
    1.6	6.6
3. COc1ccc(-c2nc3scc(CCNC(=O)Cc4ccc(F)cc4)n3n2)cc1
    -0.9	1.9
4. Cc1ccc(C(C)C)c(OCC(=O)Nc2ccc(O)c(-c3nc4cc(Cl)ccc4o3)c2)c1
    -0.4	39.7
5. COc1ccc(/C=C/C(=O)Nc2nc(-c3cccs3)ns2)cc1
    3.7	17.8
6. COc1ccc(NC(=O)Cn2cnc3ccc(S(=O)(=O)N4CCC(C)CC4)cc3c2=O)c(OC)c1
    0.1	-1.4
7. COc1ccc(-c2nc(CSCC(=O)NCCc3ccc(OC)c(OC)c3)c(C)o2)cc1
    -0.7	-15.8
8. CC(C)(C)c1ccccc1NC(=O)CSc1nc(-c2cccs2)cc(C(F)(F)F)n1
    -0.7	-12.3
9. Cc1ccc(-c2cc(-c3ccc4c(c3)NC(=O)CO4)nc3c2COc2ccccc2-3)cc1
    -0.3	-5.4
10. CCOc1ccc(NC(=O)c2oc3ccccc3c2NC(=O)C(C)(C)C)cc1
    9.8	33.1
11. COc1ccc(-c2nsc(NC(=O)C(C)Oc3ccc(Cl)c(C)c3)n2)cc1 (stereo not given)
    2.0	31.0
12. CCC1CN(C(=O)Nc2ccccc2C(F)(F)F)c2ccccc2S1 (stereo not given)
    0.5	1.0
13. CCOc1cccc(C2c3c(oc4cc(C)c(C)cc4c3=O)C(=O)N2c2nc(C)c(C)s2)c1 (stereo not given)
    1.0	14.8
14. COc1ccccc1NC(=O)c1sc2nc(C)c(C(=O)Nc3ccc(Cl)cc3)c(-c3ccc(Br)cc3)c2c1N
    1.9	5.1
15. O=C(CCc1nc2cccnc2n1Cc1cccs1)Nc1cccc(C(F)(F)F)c1
    1.5	30.7
16. CC(C)c1nc2ccc(C(=O)NCCCN3CCN(c4ccccc4)CC3)cc2o1
    0.7	-1.1
17. Cc1ccc2c(=O)c(C(=O)c3ccccc3)cn(CC(=O)Nc3ccccc3C)c2n1
    -0.6	-9.0
18. CC1CCCCN1Cc1c(O)ccc2c(=O)c(-c3ccccc3Cl)c(C(F)(F)F)oc12 (stereo not given)
    2.1	-10.0
19. O=C(Nc1cccc(Cl)c1Cl)c1cc2nc(-c3ccc4c(c3)OCO4)cc(C(F)(F)F)n2n1
    -0.3	14.4
20. CSc1ccc(CNC(=O)CN2C(=O)C3CCCCN3c3ccc(C(=O)N4CCCC4)cc32)cc1 (stereo not given)
    -0.3	-4.0

Reformatted as tab-separated lines: entries from further up.
#	structure	TRPML1 agonist	TRPML1 blocker
19	O=C(Nc1cccc(Cl)c1Cl)c1cc2nc(-c3ccc4c(c3)OCO4)cc(C(F)(F)F)n2n1	-0.3	14.4
14	COc1ccccc1NC(=O)c1sc2nc(C)c(C(=O)Nc3ccc(Cl)cc3)c(-c3ccc(Br)cc3)c2c1N	1.9	5.1

One compound at a time, as listed above. Order of screens: TRPML1 agonist | TRPML1 blocker
`Cc1ccc2c(=O)c(C(=O)c3ccccc3)cn(CC(=O)Nc3ccccc3C)c2n1` in the list: -0.6 | -9.0
`CC(C)c1nc2ccc(C(=O)NCCCN3CCN(c4ccccc4)CC3)cc2o1` in the list: 0.7 | -1.1

Remaining list, next part.
Screens in order: TRPML1 agonist	TRPML1 blocker
21. C=Cc1ccc(Cn2c(=O)n(-c3cccc(C)c3)c(=O)c3c2c2cc(C)ccc2n3C)cc1
    3.0	21.3
22. Cc1ccc(-n2nc(CO)c(C(=O)NCCCc3ccccc3)n2)cc1
    4.1	30.8
23. COc1ccc(NC(=O)c2c(NCc3ccc(N(C)C)cc3)sc3c2CCC3)cc1
    -0.6	-3.3
24. CCOC(=O)c1c(-c2ccc(C)cc2)csc1NC(=O)c1cc(=O)c2cc(Cl)ccc2o1
    3.2	6.4
25. COc1ccc(-c2nc3sc(CCNC(=O)C(=O)Nc4ccc(C)c(C)c4)c(C)n3n2)cc1
    3.0	-2.0
26. CCCc1cnc2c(c1SCC(=O)NCc1ccc(C)cc1)c(=O)n(C)c(=O)n2C
    -0.1	-10.4
27. Cc1nc2ccn(Cc3ccco3)c(=O)c2cc1C(=O)N1CCN(c2ccccc2)CC1
    0.0	-10.2
28. CCOc1ccccc1NC(=O)C1CCN(S(=O)(=O)c2ccc3c(c2)CCCN3C(C)=O)CC1
    0.0	0.6
29. COc1cccc(N2CCN(C(=O)C(CCSC)NS(=O)(=O)c3ccc4c(c3)oc(=O)n4C)CC2)c1 (stereo not given)
    1.5	21.1
30. Cc1cc2c(cc1C)C(c1cccc(OC(C)C)c1)CC(=O)N2 (stereo not given)
    -0.2	-6.6
31. Cc1cc(OCC(=O)NCC2(N3CCN(C)CC3)CCCCC2)cc(C)c1Cl
    7.0	-12.1
32. COc1ccccc1N1CCN(C(=O)CCS(=O)(=O)c2cc(Br)cc3c2N(C(=O)C2CC2)CC3)CC1
    0.2	34.2
33. Cc1cccc(C(=O)N2CCc3cc(CNC(=O)CSc4ccccc4)ccc32)c1
    -0.7	-6.9
34. Brc1ccccc1-n1ncc2c1ncn1nc(Cc3ccccc3)nc21
    0.7	13.0
35. CC(C)OCCCn1c(=O)c2ccccc2n2c(-c3ccc(F)cc3)nnc12
    1.1	-8.2
36. Cc1cc(C)cc(NS(=O)(=O)c2ccc3[nH]cc(C(=O)N4CCCC4)c(=O)c3c2)c1
    2.0	28.3
37. Cc1cccc(OCc2ccc(-c3nc(C#N)c(N4CCN(c5ccccc5)CC4)o3)o2)c1
    0.1	2.5
38. O=C(Nc1ccc(C(F)(F)F)cc1)c1cc(S(=O)(=O)NC2CCCCCC2)ccc1F
    0.5	-7.1
39. Cc1cccc(OCC(=O)Nc2c(C(=O)N3CCN(c4ccccc4F)CC3)oc3ccccc23)c1
    -0.1	-12.0
40. COc1ccc2c(c1)-c1nc(NC(=O)c3ccccc3F)sc1CC2
    3.6	43.5
41. O=C(NC(=O)c1cccc(F)c1)Nc1ccc(-c2cc(C(F)(F)F)nn2-c2ccccc2)cc1
    0.7	4.8
42. CC(=O)c1ccc(N2CCN(C(=O)C3CCN(S(=O)(=O)c4cn(C)cn4)CC3)CC2)cc1
    0.6	?
43. COCCn1c(=N)c(C(=O)NC2CCCC2)cc2c(=O)n3cc(C)ccc3nc21
    2.2	1.1
44. CCCCC12CN3CC(C)(CN(C1)C3c1c(C)[nH]c(=O)[nH]c1=O)C2=O (stereo not given)
    0.6	0.3
45. CCOC(=O)c1ccc(NC(=O)CCn2cnnn2)cc1
    1.6	-24.1
46. COc1ccccc1N1CCN(c2ccc(NC(=O)c3ccc(C)cc3)cc2C(=O)O)CC1
    -0.1	-5.6
47. CCc1ccc(NS(=O)(=O)c2ccc3[nH]cc(C(=O)NCCc4cccc(C)c4)c(=O)c3c2)cc1
    1.5	-17.6
48. CCCOc1ccc(-c2nc(N3CCC(C)CC3)c3ccccc3n2)cc1
    0.1	-9.6
49. CCOC(=O)C1CCCN(C(=O)c2ccc(NC(=O)c3nsc4ccccc34)cc2)C1 (stereo not given)
    1.5	18.6
50. COc1ccc(CNC(=O)c2cc3c(=O)n(Cc4ccc(OC)cc4)ccc3nc2C)cc1
    2.2	11.7
51. COc1ccc(NC(=O)Cn2c(=O)cc(C)c3c(C)nn(C)c32)cc1
    -0.3	-9.8
52. CC(=O)OCC(NC(=O)C(COCc1ccccc1)NC(=O)OC(C)(C)C)C1OC(n2cc(F)c(=O)[nH]c2=O)C(OC(C)=O)C1OC(C)=O (stereo not given)
    0.5	-14.5
53. COc1ccc(CNCCC(c2ccc(C)cc2)c2ccco2)cc1 (stereo not given)
    -0.1	23.9
54. Cc1cc(C)n2nc(CNS(=O)(=O)c3ccc(Cl)cc3)nc2n1
    -0.6	4.0
55. CCN(CC)c1ccc(NC(=O)CCS(=O)(=O)c2ccc3c(c2)oc(=O)n3C)c(C)c1
    -0.3	6.3
56. COc1ccc(NC(=O)CSC2=Nc3ccccc3C3=NC(CC(=O)NCc4ccco4)C(=O)N23)cc1 (stereo not given)
    0.1	7.2
57. O=c1[nH]c2ccc(NS(=O)(=O)c3ccc(F)cc3)cc2s1
    -0.8	-4.7
58. Cc1ccc(Cl)cc1NC(=O)N1CCC2(CC1)Oc1ccccc1C(=O)N2Cc1ccccc1F
    2.7	1.0
59. COc1cc2nc(NC(=O)c3ccc(S(=O)(=O)N4CCCC4)cc3)sc2cc1OC
    0.0	47.6
60. CCc1ccc(C2CC(=O)c3c([nH]c(C(=O)OC4CCCCCC4)c3C)C2)cc1 (stereo not given)
    0.3	0.6
61. Cc1ccc(N2C(=O)CSC23C(=O)N(CC(=O)NCCc2ccccc2)c2ccccc23)cc1 (stereo not given)
    2.3	44.7
62. O=C(NCc1ccc(F)cc1)c1ccc2c(c1)nc1n2CCCCC1
    -0.5	-3.9
63. O=C(NC1CC(=O)N(c2ccccc2)C1)c1ccc(S(=O)(=O)N2CCCC2)cc1 (stereo not given)
    1.8	?
64. N=c1c(C(=O)NCC2CCCO2)cc2c(=O)n3ccccc3nc2n1CCCO (stereo not given)
    -0.8	9.4
65. CC(NC(=O)C1=Cc2ccccc2OC1)c1ccccc1 (stereo not given)
    -1.0	-9.1
66. CCCSc1ncc(Cl)c(C(=O)Nc2c(C(=O)Nc3ccc(C)cc3)oc3ccccc23)n1
    0.2	-9.8
67. CCCC/C=C/[C@@H](c1ccccc1)C1COC(=O)CC1O (stereo not given in full)
    0.6	3.4
68. COc1ccccc1CNC(=O)CCC1N=C2c3ccccc3N=C(SCc3ccc(C)cc3C)N2C1=O (stereo not given)
    -0.7	7.3
69. Cc1ccccc1NC(=O)CCN1C(=O)c2ccccc2Sc2ncccc21
    -0.4	3.5
70. COc1ccc(CCNC(=O)C2CCCN(c3nc4c(C)cc(C)cc4s3)C2)cc1OC (stereo not given)
    0.5	43.9
71. Cc1ccccc1OCC(=O)Nc1ccc(C(=O)OCc2cc(=O)n3ccsc3n2)cc1
    0.2	12.6
72. CCn1c(SCc2c(F)cccc2Cl)nc(=O)c2c(C(=O)OC)cc(C3CC3)nc21
    -0.6	4.6
73. CNS(=O)(=O)c1cn(CC(=O)N2CCN(c3ccc(C)cc3C)CC2)cc1S(=O)(=O)NC
    0.3	-2.8
74. COc1ccc(N2CC(NC(=O)c3cc4ccccc4o3)CC2=O)cc1 (stereo not given)
    0.6	3.1
75. COc1ccc(-c2nc(SCC(=O)Nc3ccc4c(c3)OCCO4)c(-c3ccc(F)cc3)[nH]2)cc1
    0.7	44.0
76. O=C(CSC1=Nc2ccccc2C2=NC(CCC(=O)NC3CCCCC3)C(=O)N12)Nc1cccc(Cl)c1 (stereo not given)
    0.5	-25.0
77. COc1ccc(NC(=O)c2sc3nc[nH]c(=O)c3c2C)cc1
    -1.0	-4.1
78. Cc1ccc2c(c1)N(C(=O)N1CCC(C(=O)NCCC3=CCCCC3)CC1)CC(C)O2 (stereo not given)
    -0.7	4.5
79. CCOc1ccc(NC(=O)CCn2cnc3onc(-c4ccc(F)cc4)c3c2=O)cc1
    1.8	13.8
80. Cc1nc(-c2ccc(Cl)cc2)sc1CCNC(=O)C(=O)Nc1ccc2c(c1)OCO2
    0.9	-11.0

(cont.)
Screens in order: TRPML1 agonist	TRPML1 blocker
81. N#Cc1c(NC(=O)CS(=O)(=O)c2ccc(Cl)cc2)sc2c1CCCCC2
    1.9	-23.8
82. COc1ccc(-c2ccc(=O)n(CC(=O)Nc3ccc(N(C)C)cc3)n2)cc1
    3.6	?
83. COc1cccc(NC(=O)c2cnn(-c3ccccc3)c2-n2cccc2)c1
    0.9	-8.3
84. COc1ccc(-n2c(=O)c3ccc(C(=O)NCc4ccc(C)cc4)cc3n(Cc3ccc(Cl)cc3)c2=O)cc1
    0.9	20.1
85. CC(=O)N1CCc2cc(S(=O)(=O)NC(CC(C)C)C(=O)NCc3ccccc3Cl)ccc21 (stereo not given)
    -0.5	5.3
86. CCc1nn2c(=O)cc(COC(=O)c3ccc4c(c3)OCO4)nc2s1
    -0.8	2.1
87. O=C(Cc1ccccc1)Nc1cc(-c2nc3cc(Cl)ccc3o2)ccc1Cl
    0.7	1.7
88. CCCCC(=O)Nc1cc(-c2nc3ccccc3o2)ccc1OC
    2.2	-0.9
89. COc1ccc(CNC(=O)Cn2c(=O)nc(-c3ccccc3F)c3cc(Cl)ccc32)cc1OC
    2.2	28.0
90. CCCNC(=O)C1CCC(Cn2c(=O)c3sccc3n(Cc3ccccc3F)c2=O)CC1 (stereo not given)
    -0.7	18.6
91. Cc1ccc(NC(=O)CCS(=O)(=O)c2cc(Br)cc3c2N(C(=O)C2CC2)CC3)cc1
    0.1	9.2
92. CCOc1ccc(NC(=O)CSC2=Nc3ccccc3C3=NC(CCC(=O)NCc4cccs4)C(=O)N23)cc1 (stereo not given)
    -0.3	-8.7
93. NS(=O)(=O)c1ccc(CCNC(=O)CCn2c(=O)c3cccn3c3cccnc32)cc1
    -0.6	12.3

Screening results from PubChem.
